Bioassay records deposited in PubChem BioAssay by National Center for Advancing Translational Sciences (NCATS).
gsp agonist – qHTS for Agonist of gsp, the Etiologic Mutation Responsible for Fibrous Dysplasia/McCune-Albright Syndrome: qHTS; actives 0.13% (n = 340,000); gsp mutant cells, cAMP HTRF, 30 min; control for the full effect not named in the record; AID 624287, 2012; Potency, µM (doses to about 76.9 µM), inactives show top-dose activation (cAMP increase), hits mostly activators; active = well fitted activation curve with a large enough effect; inconclusive = small, poorly fitted or top-dose-only effect, or another doubt; inactive = no such curve, though single readings can be large or run the other way; cell line not stated here;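 further: phosphodiesterase inhibitor Ro 20-1724 added with compounds to block cAMP breakdown; potency means the concentration at half of the fitted maximal effect; nearly all actives have a fitted effect of over 60% in size; about a fifth of the inactives were tested at one dose only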
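Cells in DMEM/10% FBS with G418 were pretreated with compounds in DMSO plus […] (300 uM stock) for 30 min at 37C. cAMP was measured by HTRF (cAMP-d2 plus anti-cAMP antibody-K) after 30 min at room temperature.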
Six1-Eya2 inh – qHTS Assay for Inhibitors of the Six1/Eya2 Interaction; AID 651725, 2012; AlphaScreen GST-Six1/His-Eya2 binding, biochemical; active compounds read low; control for the full effect not named in the record; actives 0.56% (n = 360,000); activity change, % (no concentration beside the values); in the data active = activity change below about -65%; inconclusive = about -30% to -65%; inactive = above about -30%; further: on the % scale 0 is the no-effect control and ±100 the full control effect
Target sequence (O00167 whole entry, looked up): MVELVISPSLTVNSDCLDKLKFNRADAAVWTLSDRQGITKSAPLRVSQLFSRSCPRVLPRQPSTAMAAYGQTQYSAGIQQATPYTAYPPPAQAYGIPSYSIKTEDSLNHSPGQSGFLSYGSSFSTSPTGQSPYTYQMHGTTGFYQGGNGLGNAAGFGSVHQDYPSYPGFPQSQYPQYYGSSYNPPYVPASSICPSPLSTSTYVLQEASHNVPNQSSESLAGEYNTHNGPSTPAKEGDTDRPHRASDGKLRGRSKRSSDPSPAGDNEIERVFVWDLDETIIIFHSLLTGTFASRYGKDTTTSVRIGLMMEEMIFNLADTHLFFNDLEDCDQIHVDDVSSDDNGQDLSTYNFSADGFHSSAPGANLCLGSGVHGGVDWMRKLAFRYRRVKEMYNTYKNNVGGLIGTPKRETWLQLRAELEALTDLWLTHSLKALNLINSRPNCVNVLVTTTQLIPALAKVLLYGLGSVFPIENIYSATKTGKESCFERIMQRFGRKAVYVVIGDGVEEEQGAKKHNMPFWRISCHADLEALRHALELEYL
Target sequence (Q15475 whole entry, looked up): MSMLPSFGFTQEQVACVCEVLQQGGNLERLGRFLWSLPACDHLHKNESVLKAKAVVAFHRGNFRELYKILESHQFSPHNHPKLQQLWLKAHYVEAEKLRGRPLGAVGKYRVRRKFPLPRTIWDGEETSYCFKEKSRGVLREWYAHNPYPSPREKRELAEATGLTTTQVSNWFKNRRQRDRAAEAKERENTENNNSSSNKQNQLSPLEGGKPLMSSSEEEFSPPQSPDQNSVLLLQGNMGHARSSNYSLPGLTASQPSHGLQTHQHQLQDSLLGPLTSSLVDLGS
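GST-Six1 + His-Eya2 (5X stock: 250/500 nM); Tris pH 8.0, 300 mM NaCl, 0.05% BSA, 0.02% Tween 20; GSH donor/Ni acceptor beads; 1 h 37 °C dark; AlphaScreen readout.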
D2 potentiator – Beta-Arrestin HTS for Positive Allosteric Modulators of the Human D2 Dopamine Receptor: Potentiators; actives 0.23% (n = 360,000); potentiation, % (concentration not given with the values); DiscoveRx D2 beta-arrestin cells, luminescence, 90 min; 100% = 57 uM dopamine signal; active = potentiation of 50% or more; inconclusive = 30% to 50%; inactive = 30% or less;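 further: compound concentration not given in the record; tested on top of an EC20 dose of dopamine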
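PathHunter D2 cells, attached overnight at 37 deg C, received compound in DMSO plus dopamine at EC20 (50 nM final) for 90 min at 37 deg C. Beta-arrestin recruitment was read as luminescence after 1 h with detection reagent at ambient temperature.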
gsp antag – qHTS for Antagonists of gsp, the Etiologic Mutation Responsible for Fibrous Dysplasia/McCune-Albright Syndrome: qHTS. gsp-mutant cells, cAMP HTRF, 30 min; control for the full effect not named in the record. Potency, µM (series often up to 76.9 µM), inactives show at the highest dose activity change, negative = inhibition, usual class: inhibitors. actives 0.4% (n = 340,000); active = falling curve of any shape with a large fitted effect; inconclusive = falling curve, mostly with a smaller effect; inactive = flat or rising curve; cell line not stated here;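 further: intracellular cAMP measured with PDE inhibitor Ro 20-1724 present during compound exposure; potency means the concentration at half of the fitted maximal effect; on the % scale 0 is the no-effect control and ±100 the full control effect; nearly all actives have a fitted effect of over 65% in size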
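HTRF cAMP read-out (cAMP-d2 plus anti-cAMP antibody-K in lysis buffer, 30 min RT). Before lysis, cells are exposed to compounds with […] for 30 min at 37C in DPBS containing Ca/Mg, BSA and Tween 20.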
D2 ag – Beta-Arrestin HTS for Positive Allosteric Modulators of the Human D2 Dopamine Receptor: Agonists; D(2) dopamine receptor (Homo sapiens), P14416; actives 0.084% (n = 360,000); DiscoveRx PathHunter D2 beta-arrestin, luminescence, 90 min; 100% = 57 uM dopamine signal; activation, % (test concentration not listed); in the data active = activation above about 40%; inconclusive = about 15% to 40%; inactive = below about 15%; further: compound concentration not given in the record; the text of the record calls up to 30% inactive
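Agonist mode: compounds alone added to overnight-plated D2 PathHunter cells for 90 min at 37 C, with 57 uM final dopamine (EC100) defining full response. Beta-arrestin recruitment detected by chemiluminescent reagent, read after 1 h at ambient temperature.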
CtBP-E1A blk – qHTS Assay for Inhibitors of the CtBP/E1A Interaction; AlphaScreen GST-E1A/His-CtBP binding, 1536-well; active compounds read low; control for the full effect not named in the record; actives 0.49% (n = 340,000); activity change, % (test concentration not listed); CtBP / adenovirus E1A interaction (AlphaScreen); in the data active means activity change below about -65%; inconclusive means about -30% to -65%; inactive means above about -30%; further: on the % scale 0 is the no-effect control and ±100 the full control effect
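Homogeneous bead-based format: GST-tagged E1A captured on glutathione donor beads, His-tagged CtBP on nickel acceptor beads; compounds precede bead addition by 2 h at 37 °C.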
Starred values were filed as active, the others as inactive; ? = inconclusive; . = no result given; [ ] = remark or other dose.

SMILES | gsp agonist | Six1-Eya2 inh | D2 potentiator | gsp antag | D2 ag | CtBP-E1A blk
O=P(C(c1c[nH]c2ccccc12)N1CCOCC1)(N1CCOCC1)N1CCOCC1 (centres undefined) | 1% | 4 | -7 | 21% | -1.4 | 11
O=C1Nc2ccccc2Sc2ccccc21 | -88%[inhibitor] | 4 | -1 | -8% | -2.9 | .
Cn1c(O)c(/C=C/C=Nc2ccccc2)c(=O)n(C)c1=S | -11% | 2 | -6 | -14% | -2.8 | 8
O=C1C2CCCC1C(N1CCCC1)CC2 (centres undefined) | -20% | -3 | -5 | 7% | 4.5 | 0
COc1ccccc1-n1c(-c2ccccc2Cl)nc2ccccc2c1=O | 2% | 7 | -1 | ? | -0.1 | 0
COc1cc(C2C(C#N)=C(N)OC3=C2C(=O)CC(C)(C)C3)ccc1OC(=O)N1CCOCC1 (centres undefined) | -30% | 1 | 5 | -1% | 2.4 | 5
Cc1ccc(/C=C2\C(=O)NC(=O)N(CCc3ccc(F)cc3)C2=O)s1 | 1%[15.4 µM] | 1 | -31 | 9% | 2.7 | 11
Cc1cc(C)cc(NC(=S)NC2CC3CCCC(C2)N3Cc2cccs2)c1 (centres undefined) | -3% | ? | -23 | 1% | -0.6 | ?
Cc1ccc(S(=O)(=O)N(C)C[C@@H]2Oc3ncc(Br)cc3C(=O)N([C@H](C)CO)C[C@H]2C)cc1 | -26% | 22 | 3 | . | 1.2 | 18
CCOC(=O)Cn1cc(C(=O)c2ccccc2)c2ccccc21 | -19% | 2 | 2 | ? | -1.0 | .
CN(C)C(Cc1ccccc1)C(=O)c1ccccc1 (centres undefined) | 0% | 9 | 0 | -17% | -1.4 | 5
COC(=O)C1=C(c2cccc(NC(C)=O)c2)C[C@@H]2CC[C@H]1N2C | 0% | -5 | -10 | 9% | -4.1 | 7
CC(C)N(Cc1ccco1)/N=C/c1c(O)n(Cc2ccccc2)c(=O)[nH]c1=O | -6%[15.4 µM] | 3 | -10 | -7% | -0.5 | -3
O=[N+]([O-])c1ccc(N2CCNCC2)cc1NCc1ccco1 | 3% | -1 | -30 | 17% | -0.7 | 3
CCOC(=O)C1(CCOc2ccccc2)CCN(Cc2ccccc2OC)CC1 | -16% | -2 | -29 | 8% | -7.6 | -6

Quoted from the listing.
Cn1c(O)c(/C=C/C=Nc2ccccc2)c(=O)n(C)c1=S @ CtBP-E1A blk = 8
O=C1Nc2ccccc2Sc2ccccc21 @ gsp antag = -8%
O=[N+]([O-])c1ccc(N2CCNCC2)cc1NCc1ccco1 @ gsp agonist = 3%
Cc1cc(C)cc(NC(=S)NC2CC3CCCC(C2)N3Cc2cccs2)c1 (centres undefined) @ gsp agonist = -3%

Profiles as entered above. Order of values: gsp agonist | Six1-Eya2 inh | D2 potentiator | gsp antag | D2 ag | CtBP-E1A blk
COc1cc(C2C(C#N)=C(N)OC3=C2C(=O)CC(C)(C)C3)ccc1OC(=O)N1CCOCC1 (centres undefined) across the screens: -30% | 1 | 5 | -1% | 2.4 | 5
CCOC(=O)C1(CCOc2ccccc2)CCN(Cc2ccccc2OC)CC1 across the screens: -16% | -2 | -29 | 8% | -7.6 | -6

Further results
SMILES | gsp agonist | Six1-Eya2 inh | D2 potentiator | gsp antag | D2 ag | CtBP-E1A blk
Cc1ccc(N2C(=O)NC(=O)/C(=C\c3cc(C)n(-c4sc5c(c4C#N)CCCC5)c3C)C2=O)cc1 | -8% | -6 | -8 | -3% | -2.2 | -6
O=c1[nH]c(=S)[nH]c(O)c1/C=N/N1CCOCC1 | 40% | 11 | -19 | 6% | -6.0 | .
CCN1C(=O)NC(=O)/C(=C\c2cn(CC(=O)N3CCCCC3C)c3ccccc23)C1=O (centres undefined) | ? | 5 | 19 | -9% | -2.9 | 6
COC(=O)C1=C(c2ccc(C(C)=O)cc2)C[C@@H]2CC[C@H]1N2C(=O)N1CCC(O)CC1 | 1% | 3 | -6 | 2% | -1.0 | 5
CSCCC(N=Cc1c(O)n(-c2ccc(Br)cc2)c(=O)[nH]c1=O)C(=O)OC(C)(C)C (centres undefined) | ? | 25 | -5 | -2% | -3.6 | 0
COc1ccc(CC2(CCc3ccncc3)C(=O)NC(=O)NC2=O)cc1OC | -8% | 10 | -12 | 0% | -1.8 | .
CNC(=O)CSc1nnc(-c2cc(C)cc(C)c2)o1 | -40%[inhibitor] | 3 | -1 | -2% | 0.9 | 1
CCn1ccnc1CN1CCCC(C(=O)c2ccc(SC)cc2)C1 (centres undefined) | -24%[15.4 µM] | -7 | -18 | -4% | . | -17
O=C1NC(=O)C(=Cc2ccccc2OCCOc2ccc([N+](=O)[O-])cc2)C(=O)N1 | -16% | -16 | -6 | -8% | 7.2 | -8
Cc1ccccc1N1C(=O)NC(=O)/C(=C/c2ccc(N3CCOCC3)o2)C1=O | -1%[15.4 µM] | 6 | -5 | 1% | -1.9 | 1
O=C(Nc1ccc(Oc2ccc(Cl)cc2)c(Cl)c1)c1cc(I)cc(I)c1O | . | -2 | 8 | ? | 0.6 | 2
COC1CC(C)C(OC)c2cc(O)cc(c2O)NC(=O)C(C)=CC=CC(C)C(OC(N)=O)C(C)=CC(C)C1OC (centres undefined) | 6% | 9 | 14 | 4% | 12 | 0
CCN1/C(=C\C=C\C2=[N+](CC)c3ccccc3C2(C)C)C(C)(C)c2ccccc21 | 31%[15.4 µM] | ? | -37 | -8% | -8.4 | ?
CC(=O)c1ccc(OC(=O)N(C)c2ccccc2)cc1 | 3% | 7 | -3 | 4% | -4.4 | 4
CCN1CCN(C(=O)COc2ccc3oc4c(c3c2)CCCC4)CC1 | -2% | -15 | -18 | 0% | -0.8 | .
O=c1c2ccccc2nc(-c2ccc([N+](=O)[O-])cc2)n1-c1ccccc1 | 14%[15.4 µM] | 5 | -5 | -10% | -1.1 | 12
Cc1ccccc1-c1ccc2c(c1)C1c3c(-c4ccccc4)nnn3-c3ccccc3C(=O)N1CC2 (centres undefined) | . | 0 | -1 | . | -0.9 | -6
COC(=O)C1=C(c2c(C)noc2C)C[C@@H]2CC[C@H]1N2C(=O)NCCNC(C)=O | 2% | 2 | -10 | -7% | -1.6 | -3
COc1ccc(CNCCc2c[nH]c3ccccc23)c(OC)c1OC | ? | -8 | -6 | 4% | -5.5 | -14
CN1CC(C(=O)c2ccc(F)cc2)C(c2ccc(F)cc2)C1 (centres undefined) | 11% | -15 | -28 | 8% | -7.9 | -7
CN(C)C1(CNC(=O)Nc2ccc(Cl)c(Cl)c2)CCCCC1 | 2% | 9 | -15 | 12% | -2.0 | -4
CC(=O)c1ccc(OCC(=O)N2CCCC(N(C)Cc3ccccc3)C2)cc1 (centres undefined) | -5% | 1 | -6 | -5% | -1.0 | 2
CC(C(N)=O)N1CC(c2ccc(Cl)cc2)CC1=O (centres undefined) | -6% | 8 | -7 | -2% | -3.8 | 11
O=C(CCc1ccccc1)N1Cc2cc(-c3cccc(F)c3)ccc2-n2nncc2C1 | . | -8 | 1 | . | 2.5 | -4
CCN1C(=O)NC(=O)/C(=C\c2cn(CC(=O)N3CCCCC3)c3ccccc23)C1=O | -6%[15.4 µM] | -16 | -9 | 1% | -11 | 0
Cc1ccccc1-n1c(-c2ccco2)nc2ccccc2c1=O | 0% | 3 | -7 | -17% | -1.2 | 3
COC(=O)c1c2[n+](cc3cc(OC)c(OC)cc13)CCc1cc(OC)c(OC)cc1-2 | 0% | ? | -3 | 10% | -1.9 | ?
Cc1[nH]c2ccccc2c1C(=O)C(=O)N1CCC2(CC1)OCCO2 | -3%[15.4 µM] | 4 | 3 | 9% | 1.0 | 4
Cc1nn(Cc2ccccc2Cl)c(Cl)c1C(=O)OCC(=O)NC(=O)NC1CCCCC1 | -8% | 6 | 0 | 0% | -3.0 | 1
Cc1ccnc(NC(=O)CCCc2ccc(N(CCCl)CCCl)cc2)n1 | 2%[15.4 µM] | -8 | -5 | -11% | -1.8 | -2
O=P(Nc1ccccc1Cl)(c1ccccc1)c1nc2c(s1)CCCC2 (centres undefined) | 0% | 10 | -3 | 0% | -0.9 | -5
O=c1[nH]c2ccccc2n1C1CCN(C(c2ccnc3ccccc23)c2nnnn2-c2ccc3c(c2)OCCO3)CC1 (centres undefined) | . | -23 | 50* | . | ? | -15
CCN(CC)CCCC(C)N=C(c1ccccc1)c1c(O)n(C)c(=O)n(C)c1=O (centres undefined) | -20% | 1 | -13 | 3% | 8.9 | 2
COC(=NC1CCCC1)C(O)c1c[nH]c2ccccc12 (centres undefined) | 9% | 2 | 3 | -7% | -1.2 | 0
CN1C(=O)C(O)N=C(c2ccccc2)c2ccccc21 (centres undefined) | 17% | 0 | 3 | 9% | -2.7 | 6
COC(=O)C1=C(c2ccc(C(C)=O)cc2)C[C@@H]2CC[C@H]1N2C(=O)NC1CCCCC1 | . | 1 | -12 | 3% | -3.5 | -4
COc1ccn(C)c(=O)c1C#N | . | 3 | -28 | -1% | -5.1 | -1
COC(=O)C1CN(C#N)N(c2ccc(Cl)cc2)C12c1ccccc1-c1ccccc12 (centres undefined) | -2% | -7 | -2 | 14% | -6.1 | 5
COc1ccc(CC2C(=O)N(c3ccccc3)C(=O)N(c3ccccc3)C2=O)c(OC)c1 | 5% | 2 | 11 | -2% | 1.2 | 15
S=P1(Oc2ccccc2)Nc2ccccc2N1 | ? | -8 | 6 | -3% | -2.2 | 3
CC(=O)c1cc(C#N)c(N2CCN(C)CC2)nc1C | 9%[15.4 µM] | 5 | -20 | . | -0.1 | 0
CN1C(=O)C(=Cc2cn(CC#N)c3ccccc23)C(=O)N(C)C1=O | -31%[inhibitor][15.4 µM] | 8 | -2 | 4% | -0.3 | 5
NNS(=O)(=O)c1ccc(Sc2ccccn2)c([N+](=O)[O-])c1 | -32%[inhibitor] | -1 | -20 | 6% | -6.8 | 4
COc1ccc(OC)c(N2C(=O)/C(=C/c3ccco3)C(=O)NC2=S)c1 | 24%[15.4 µM] | -71* | -7 | -8% | -2.6 | -10
O=C(c1ccc2c(c1)OCO2)C1CCCN(Cc2c(F)cccc2Cl)C1 (centres undefined) | 26% | -11 | -21 | -13% | -2.6 | -1
CCOC(=O)c1cc(C)sc1/N=C/C1C(=O)NC(=S)NC1=O | -10%[15.4 µM] | ? | -18 | . | -4.9 | 11
CCc1nnc(NS(=O)(=O)c2ccc(N=Cc3c(O)n(-c4ccc(Cl)cc4)c(=O)[nH]c3=O)cc2)s1 | 19%[15.4 µM] | 2 | -13 | 5% | -4.3 | 1
O=C(Nc1c(F)cc(F)cc1F)c1cccn(Cc2ccccc2)c1=O | 9% | 2 | -5 | 7% | 4.5 | -14

This is a subset; rates above refer to the full screens.
